PrP 5UTR inh: inhibition of PrP 5' UTR reporter expression; cell-based PrP 5' UTR mRNA reporter, plate reader; inhibition, % (test concentration not listed); actives 0.35% (n = 340,000);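 active means every replicate at 50% or more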;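 further: 0 = median of the neutral control wells; tested in H4 reporter cells; numbers are from one replicate; inactives centre near -14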
Bead autofluor: compound fluorescence in toxin protease inhibitor counterscreen; compound autofluorescence counterscreen, microsphere flow cytometry; active compounds read high; fluorescence intensity (no concentration beside the values); actives 3.1% (n = 360,000);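 active means at least 3 SD above the mean of all compounds, about 16000 in these data; inconclusive means too few beads counted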;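 further: 100 nL of 1 mM stock went into each well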
Sa RN4220 lethal: growth inhibition of S. aureus RN4220, primary screen, OD600; 16 h; inhibition, % (concentration not given with the values); actives 0.33% (n = 330,000); AID 1259311, 2017;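 active means z-score of -3 or lower and OD600 up to 0.18 on both plates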;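 further: plate controls were untreated cells for no effect and reference antibiotic for full effect; stock transfer was 100 nL into about 80 µL; one replicate is shown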
Mtb hypoxia inh: PubChem AID 1159583 | M. tuberculosis hypoxia-regulated fluorescent reporter, fluorescence | fluorescence inhibition, % (concentration not given with the values) | actives 0.1% (n = 300,000);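 active means 35 to 45% if threefold the growth effect, above 45% if 1.5-fold the growth effect; inactive means the rest, general growth blockers included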;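 further: wells of about 50 µL received 100 nL stock; 0% = vehicle wells and 100% = reference inhibitor wells; whole bacteria with a GFP reporter of the hypoxia response; strong numbers were not always called active; many hits fall short of the cut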
BJeLR lethal: MLPCN primary cell-based screen for lethality selective to Ras in HRASV12 cells; BJeLR (HRASV12) viability, CellTiter-Glo ATP luminescence, 48 h; reference of the scale not given here; inhibition, % (no concentration beside the values); actives 0.17% (n = 300,000);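 active means replicate mean above 50%; inconclusive means above 50% but judged a plate artefact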;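 further: 50 nL library stock added to about 25 µL; numbers are from one replicate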
ugtP null kill: growth inhibition of ugtP-null S. aureus, primary screen, RN4220 ugtP deletion, OD600; growth inhibition, % (concentration not given with the values); AID 1259309, 2017; 16 h; some inactives read as strong as hits; actives 0.54% (n = 330,000);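 active means z-score under -3 and OD600 up to 0.15 on both plates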;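 further: plate controls were untreated wells for no effect and antibiotic for full effect; wells of about 80 µL received 100 nL stock; the first replicate is given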
Mtb hypoxia inh growth: also measured in Mtb hypoxia inh; calls as there; growth inhibition, %; measured here: M. tuberculosis growth (absorbance);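 0% = vehicle and 100% = reference antibiotic; read after six days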
* marks the source's active call; other numbers are inactive results; ? = inconclusive; / = not tested or not shown.

Sample of the layout:
Every second line gives: PrP 5UTR inh	Bead autofluor	Sa RN4220 lethal	Mtb hypoxia inh	Mtb hypoxia inh growth	BJeLR lethal	ugtP null kill
> CCc1cc(=O)oc2cc(OCC(=O)NCC3CCC(C(=O)O)CC3)ccc12 (stereo not given)
 : -12	4395	-0.5	/	/	-9	-10
> CN(C)S(=O)(=O)c1ccc(C(=O)Nc2nnc(-c3ccco3)o2)cc1
 : -25	2560	8.8	12	13	-4	-9
> CCC1Oc2ccccc2N(CC(=O)NCCCN2CCN(Cc3ccccc3)CC2)C1=O (stereo not given)
 : -33	9205	1.7	-3	13	13	-1
> COCCNC(=O)C(OC(=O)CC1Sc2ccccc2NC1=O)c1ccccc1 (stereo not given)
 : -12	2619	-3.9	/	/	0	11

Main list, repeating the preview:
Every second line gives: PrP 5UTR inh	Bead autofluor	Sa RN4220 lethal	Mtb hypoxia inh	Mtb hypoxia inh growth	BJeLR lethal	ugtP null kill
> CCc1cc(=O)oc2cc(OCC(=O)NCC3CCC(C(=O)O)CC3)ccc12 (stereo not given)
 : -12	4395	-0.5	/	/	-9	-10
> CN(C)S(=O)(=O)c1ccc(C(=O)Nc2nnc(-c3ccco3)o2)cc1
 : -25	2560	8.8	12	13	-4	-9
> CCC1Oc2ccccc2N(CC(=O)NCCCN2CCN(Cc3ccccc3)CC2)C1=O (stereo not given)
 : -33	9205	1.7	-3	13	13	-1
> COCCNC(=O)C(OC(=O)CC1Sc2ccccc2NC1=O)c1ccccc1 (stereo not given)
 : -12	2619	-3.9	/	/	0	11
> CC(=O)c1cccc(NC(=O)C23CC4CC(C2)CC(n2cncn2)(C4)C3)c1
 : -26	2115	2.3	1	1	-8	3
> Cc1cccc(C)c1NC(=O)CNC(=O)C(NC(=O)c1ccc(C(C)(C)C)cc1)C(C)C (stereo not given)
 : -17	2292	1.7	-3	0	-20	-2
> CC(C)(C)c1cc(P(=O)(c2ccccc2)c2ccccc2)ccc1O
 : -8	6157	-0.4	4	0	-10	0
> Cn1cc(CCC(=O)N2CCCC(N3CCN(c4ccccc4F)CC3)C2)cn1 (stereo not given)
 : -17	5984	2.6	13	2	-9	1
> O=C(Nc1ccc(S(=O)(=O)Nc2cnc3ccccc3n2)cc1)c1ccc([N+](=O)[O-])cc1Cl
 : -19	3026	8.5	20	3	-2	5
> COc1ccccc1CNCC(O)Cn1c2ccccc2c2ccccc21 (stereo not given)
 : -9	1977	-13	-22	-4	0	-29
> COc1ccc(OC)c(S(=O)(=O)Nc2ccccc2F)c1
 : -130	8250	4.8	4	-2	-10	-3
> CCC(c1c(C)[nH]oc1=O)c1c(C)[nH]oc1=O
 : -3	2348	18	6	-3	2	16
> CCC(Sc1ccc2nnc(-c3ccc(OC)c(OC)c3)n2n1)C(=O)O (stereo not given)
 : 8	10867	3.0	-2	-3	1	10
> CC1CC(NS(=O)(=O)c2cccs2)CC(C)(C)C1 (stereo not given)
 : -12	7037	7.9	17	-4	3	-7
> O=C(CNC(=O)c1ccc(Br)cc1)NCc1cccnc1
 : -18	4524	5.7	-3	0	-10	13
> CC1(C)Cc2c(cnn2-c2ccc(F)cc2)C(NC(=O)CCn2cncn2)C1 (stereo not given)
 : -10	?	4.5	16	6	-9	-2
> CCCc1ccc(NS(=O)(=O)c2c(C)oc(C)c2C(=O)OC)cc1
 : -30	4322	6.3	4	-4	-12	15
> Cc1cccc(C)c1OCCN1CCOCC1
 : 1	3871	0.0	-6	11	3	0
> CN1/C(=C/C2CC(=O)NC2=O)C(C)(C)c2ccccc21 (stereo not given)
 : 0	19664*	-1.2	-5	-5	/	-6
> CCS(=O)(=O)N1CCN(c2ccc(C(=O)N3CCOCC3)cc2[N+](=O)[O-])CC1
 : -18	3203	4.3	3	1	7	5
> COc1ccc(Br)cc1/C=N/n1c(COc2ccccc2)n[nH]c1=S
 : -29	3979	/	/	/	-4	/
> CCN(CC)CCOCCn1c(C)ccc1C
 : -17	?	1.5	-8	-2	/	-1
> CCOc1cc(C(=O)Nc2cc(=O)n(C)c(=O)n2C)cc(OCC)c1OCC
 : -18	3550	-3.7	7	-3	-1	1
> Cc1cnccc1CN(C)Cc1cn(C)nc1-c1ccc(Oc2ccccc2)cc1
 : -16	4390	8.5	-4	-9	-2	6
> COc1ccc(Br)cc1C=NNC(=O)CNC(=O)c1cccnc1
 : /	/	4.1	5	3	/	7
> CCOc1cccnc1Sc1ccccc1
 : -27	6301	1.3	-5	7	1	1
> COc1ccc(Cl)cc1C(=O)NCc1cnn(C)c1C
 : -2	3779	2.3	6	0	-16	1
> O=C(COC(=O)c1c2c(nc3ccccc13)/C(=C\c1cccs1)CCC2)Nc1ccccc1Cl
 : 34	2358	0.0	10	2	0	8
> Cc1ccc(-c2nnn(CC(=O)N(CC(=O)NC3CCCCC3)c3ccc(F)c(Cl)c3)n2)o1
 : 2	2277	19	17	-22	-4	18
> Cc1c(NS(=O)(=O)c2ccc3[nH]c(=O)[nH]c3c2)c(=O)n(-c2ccccc2)n1C
 : 9	20240*	2.2	4	-6	0	11
> COC(=O)c1oc2c(c1C)C(=O)CC(C)(C)C2
 : -12	3457	4.0	0	0	-2	1
> Cc1cccc(CNc2ncc(-c3cccc([N+](=O)[O-])c3)n2C)c1
 : -3	4461	-2.1	9	5	3	9
> COC(=O)c1cc(NC(=O)CN2CCN(C(C)=O)CC2)cc(C(=O)OC)c1
 : -29	4367	0.8	13	7	2	0
> CN1CCN(c2nc3c(c(=O)n(C)c(=O)n3C)n2Cc2cccc(Br)c2)CC1
 : -14	3386	-1.5	14	2	-6	0
> COc1ccc(Cl)cc1C(=O)OCC(=O)N(CC(C)C)c1c(N)n(Cc2ccccc2)c(=O)[nH]c1=O
 : -7	6312	/	/	/	11	/
> CC(C)(C)NC(=S)NCc1ccc2c(c1)OCO2
 : -24	2013	-0.1	0	-2	-5	6
> Cc1ccc(-n2c(SCc3nc4ccccc4[nH]3)nnc2-c2ccncc2)cc1
 : -21	2347	5.2	2	3	-2	-1
> CCNC(=O)NC1(C(=O)N2CCC(Cc3ccccc3)CC2)CCCCC1
 : -20	4392	-1.4	3	5	-5	6
> CC1(C)[C@@H](O)CC[C@]2(C)C3C(O)C=C4[C@H]5C[C@@](C)(CO)CC[C@]5(C)CC[C@]4(C)[C@]3(C)CC[C@@H]12 (stereo not given in full)
 : -8	3484	/	/	/	-8	/
> Cc1ccc(OCCC(=O)OCC(=O)Nc2ccccc2)cc1
 : 7	4963	2.9	-1	-8	-1	7
> COc1ccc(S(=O)(=O)N2CCSC2c2ccccc2)cc1 (stereo not given)
 : -8	5351	7.0	1	7	5	2
> COc1ccc(C2NC(=O)NC(C)=C2C(=O)OC2CCCCC2)cc1OC (stereo not given)
 : -14	3996	2.2	8	0	-20	6
> COc1ccc(-n2c(C)n[nH]c2=O)cc1
 : -25	4335	6.7	4	1	2	5
> Cc1cc(-c2cccnc2)c(C#N)c(SCc2cccc(F)c2)n1
 : /	12606	-0.2	-5	11	6	-9
> COc1ccc2nc(SCC(=O)Nc3nonc3C)[nH]c2c1
 : -22	3443	5.0	14	15	17	3
> C=CCN1C=CC=C/C1=C1\SC(=S)N(C)C1=O
 : -26	4004	2.6	12	6	5	5
> CCCC(=O)Nc1ccc(C(=O)NCC(=O)OCC)cc1
 : 6	4963	1.7	/	/	-2	-4
> Oc1ccccc1N1CCN(CC(O)COC2CCCc3ccccc32)CC1 (stereo not given)
 : 4	3059	-1.9	8	1	-4	6
> Cc1ccccc1NC(=O)CCS(=O)(=O)c1ccc(Br)s1
 : -10	3579	0.9	15	-4	-2	0
> COC(=O)c1cc2ccccc2n1S(=O)(=O)c1ccccc1
 : -21	3017	6.0	18	10	0	1
> COc1cccc(C(C(=O)NC2CCCC2)N(CCC(C)C)C(=O)CCC(=O)Nc2cc(C)on2)c1 (stereo not given)
 : -8	4752	1.6	14	1	3	4
> Cc1nnc(SCc2ccc(F)cc2)n1NC/C=C/c1ccccc1
 : -21	3359	/	/	/	-7	/
> Cc1ccc(NC2=CC(=NS(=O)(=O)c3cccs3)c3ccccc3C2=O)cc1
 : /	/	20	-3	8	/	-17
> COc1cccc(-c2nc(CS(=O)(=O)CC(=O)NCCCN3CCN(C)CC3)c(C)o2)c1
 : -15	5507	0.9	6	7	14	3
> COC(=O)CSc1nc(-c2cccs2)ccc1C#N
 : -86	9799	1.7	2	1	7	-4
> CCOC(=O)COc1ccc2c(c1)C(=O)CC1(CCCCC1)O2
 : -8	8275	9.4	7	5	3	21
> Cc1cccc(NS(=O)(=O)c2cccc(C(=O)N3CCN(C/C=C/c4ccccc4)CC3)c2)c1
 : -4	3715	-9.4	9	4	/	15
> COCCS(=O)(=O)N(Cc1ccccc1)[C@H](C(=O)OC)C(C)C
 : -20	3997	2.5	3	5	/	4
> CCOC(=O)c1c(C)[nH]c(C)c1C(=O)COC(=O)CCOc1ccccc1OC
 : 1	3239	4.8	/	/	0	-1
> Cn1c(NC(=O)CCc2ccccc2)cc(=O)n(C)c1=O
 : -74	5760	8.6	11	8	2	11

(listing goes on)
Every second line gives: PrP 5UTR inh	Bead autofluor	Sa RN4220 lethal	Mtb hypoxia inh	Mtb hypoxia inh growth	BJeLR lethal	ugtP null kill
> COc1cc(/C=N/NC(=O)c2cc(-c3ccccc3OC(C)C)nc3ccccc23)ccc1O
 : -43	2147	/	/	/	-1	/
> Oc1c(Br)cc(Br)cc1C=Nc1nccs1
 : /	/	12	3	3	/	7
> CCn1c(=O)n(CC(=O)NCC2CCCO2)c(=O)c2c3c(sc21)COC(C)(C)C3 (stereo not given)
 : -12	5223	2.2	10	1	0	3
> COc1cccc(NC(=O)c2cncs2)c1
 : -19	3927	-3.7	-3	-3	9	-5
> CC[C@@H]1C=C(C(=O)O)[C@H](c2ccc(Cl)cc2)N1S(=O)(=O)c1ccc(C)cc1
 : -12	3723	12	-1	2	/	2
> COC(=O)c1c(NC(=O)C2CC=CCC2C(=O)O)sc(C(N)=O)c1C (stereo not given)
 : -18	2808	-6.1	8	5	6	-3
> Cc1nn(C(C)CC(=O)O)c(C)c1C (stereo not given)
 : -24	10082	4.2	8	7	-6	6
> CCCN(CC(=O)Nc1ccccc1C)C(=O)COc1ccc2c(c1)CCC2
 : -14	6260	5.3	14	2	-7	-1
> Cc1[nH]c2ccccc2c1/C=N/Nc1nc(Nc2ccc(F)cc2)nc(N2CCOCC2)n1
 : -5	5584	/	/	/	2	/
> COc1cc2ncnc(Nc3ccc4c(c3)OCO4)c2cc1OC
 : -20	3846	5.6	2	7	-8	11
> COC(=O)c1sc2ccccc2c1C(=O)OC
 : -20	22728*	-4.9	-6	-6	0	4
> Cc1cc(C)n2c(SCC(=O)NCc3ccco3)nnc2n1
 : -21	4198	5.1	18	17	-5	2
> CC(NC(=O)COc1ccccc1)C(c1ccccc1)N1CCN(C)CC1 (stereo not given)
 : -18	3294	1.3	3	2	-11	-5
> Cc1ccc(NC(=O)CN2C(=O)NC(C)(C)C2=O)cc1S(=O)(=O)N1CCCCCC1
 : -5	5747	1.0	8	2	/	6
> CCOc1ncccc1C(=O)OCC(=O)Nc1c(C)cccc1C
 : -12	2412	8.5	5	8	2	5
> CCn1nc(C)c(NC(=O)/C=C/c2cnn(C)c2C)c1C
 : /	10446	8.4	2	1	2	-1
> CC(=O)Nc1ccc(NC(=O)C2c3ccccc3Oc3ccccc32)cc1
 : -29	3855	-0.1	5	-4	2	0
> CC(C)CCNc1nc2c(c(=O)[nH]c(=O)n2C)n1CC(O)COC(C)C (stereo not given)
 : -15	4954	0.2	/	/	-8	2
> CCS(=O)(=O)N1Cc2ccccc2CC1C(=O)Nc1nccs1 (stereo not given)
 : 0	2634	4.3	-11	0	-11	0
> COc1cc(C=NNc2ncnc3sc4c(c23)CCC4)ccc1O
 : /	/	28	8	6	/	50
> COc1ccc(CCNC(=O)C(=O)NCC2OCCN2S(=O)(=O)c2ccc(F)cc2)cc1OC (stereo not given)
 : -17	6767	4.1	4	9	3	10
> C=CCNc1nnc(Cl)c2ccccc12
 : -7	10330	0.9	9	11	4	-12
> Cc1ccc(-c2nc(C3CCN(S(=O)(=O)c4ccc(C(C)(C)C)cc4)CC3)no2)cc1
 : -30	6003	2.3	7	1	5	10
> Cc1ccc(Oc2ccccc2/C=C/C(=O)O)cc1
 : -19	4671	8.3	21	4	2	-6
> N#C/C(=C\c1cccnc1)c1nc2ccccc2[nH]1
 : /	6172	3.8	-3	6	44	-5

Screening results from PubChem.
